Screens deposited in PubChem BioAssay by National Center for Advancing Translational Sciences (NCATS).
ClpP mod: qHTS Assay for Activators of ClpP; hit rate 1.9% among 340,000; purified B. subtilis ClpP, FRET peptide cleavage, 20 min; Potency, µM (highest dose often 57.5 µM), for inactives: at the top dose activity change, negative = active; ATP-dependent Clp protease proteolytic subunit (Bacillus subtilis (strain 168)), P80244; active = well fitted falling curve with a large enough effect; inconclusive = small, poorly fitted or top-dose-only effect; inactive = no such curve, though single readings can be large or run the other way; note: potency is the fitted concentration of half-maximal effect; the source files actives as falling curves though it sought activators and does not explain the sign; nearly all actives have a fitted effect of over 65% in size; many hits overshoot -100%
Target sequence (P80244 whole entry, looked up): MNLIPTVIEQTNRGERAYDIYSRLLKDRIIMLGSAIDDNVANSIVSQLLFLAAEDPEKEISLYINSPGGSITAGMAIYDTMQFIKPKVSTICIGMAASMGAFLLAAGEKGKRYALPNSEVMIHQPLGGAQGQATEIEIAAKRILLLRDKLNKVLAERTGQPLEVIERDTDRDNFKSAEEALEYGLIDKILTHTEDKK
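ClpP 10 microg/mL final, pH 8 Tris/KCl buffer with BSA, glycerol, Tween-20; compound pinned in; FRET-FV substrate; RT 20 min; Ex320/Em430; ΔFRET vs ADEP 5.8 microM, DMSO, no enzyme.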
D2 potentiator: potentiates the human D2 dopamine receptor allosterically; DiscoveRx D2 beta-arrestin cells, luminescence, 90 min; 100% = 57 uM dopamine signal; potentiation, % (no concentration beside the values); hit rate 0.23% among 360,000; active = potentiation of 50% or more; inconclusive = 30% to 50%; inactive = 30% or less;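 note: compound concentration not given in the record; tested on top of an EC20 dose of dopamine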
Target sequence (P14416 whole entry, looked up): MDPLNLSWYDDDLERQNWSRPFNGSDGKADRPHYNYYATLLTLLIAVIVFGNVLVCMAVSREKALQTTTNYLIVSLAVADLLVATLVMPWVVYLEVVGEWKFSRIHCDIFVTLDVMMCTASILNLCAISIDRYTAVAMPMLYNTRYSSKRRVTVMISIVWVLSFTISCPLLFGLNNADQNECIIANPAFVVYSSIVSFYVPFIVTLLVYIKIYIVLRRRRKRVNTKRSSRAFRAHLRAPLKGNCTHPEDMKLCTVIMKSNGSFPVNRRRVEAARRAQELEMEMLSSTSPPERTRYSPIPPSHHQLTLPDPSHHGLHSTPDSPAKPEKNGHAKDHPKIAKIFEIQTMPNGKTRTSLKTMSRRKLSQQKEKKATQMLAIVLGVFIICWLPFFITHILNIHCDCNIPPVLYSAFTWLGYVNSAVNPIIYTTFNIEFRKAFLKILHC
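D2 cells co-treated with compound plus 50 nM dopamine (EC20) for 90 min at 37 deg C to detect potentiation. Beta-arrestin recruitment was read as enzyme-fragment luminescence after 1 h at ambient temperature. Full response was set by 57 uM dopamine.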
gsp antag: antagonists of gsp mutant (McCune-Albright syndrome) | gsp-mutant cells, cAMP HTRF, 30 min; control for the full effect not named in the record | Potency, µM (series often up to 76.9 µM), for inactives: at the highest dose activity change, negative = inhibition, hits mostly inhibitors | hit rate 0.4% among 340,000 | AID 624288; active = falling curve of any shape with a large fitted effect; inconclusive = falling curve, mostly with a smaller effect; inactive = flat or rising curve; cell line not stated here;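 note: intracellular cAMP measured with PDE inhibitor Ro 20-1724 present during compound exposure; potency is the fitted concentration of half-maximal effect; % is set by controls: 0 for no effect and ±100 for the full control effect; nearly all actives have a fitted effect of over 65% in size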
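Measurement of cellular cAMP by homogeneous time-resolved fluorescence following a 30 min compound exposure at 37C. The PDE inhibitor […] was present throughout; the assay buffer was DPBS with 0.05% BSA and 0.005% Tween 20.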
TRPV1 PAM: potentiators of human vanilloid receptor 1 (TRPV1); TRPV1-expressing cells, Fluo-8 calcium influx, capsaicin EC20 potentiation; host cell line not named in the record; control for the full effect not named in the record; Q8NER1; hit rate 0.02% among 320,000; potentiation, % at 8.33 µM; active means potentiation above 80%; inconclusive means 30% to 80%; inactive means below 30%; note: 0% is about no effect
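Cells expressing TRPV1 were dye-loaded with Fluo-8 and read kinetically: 10 s baseline, 3 min after compound (agonist portion), then 2 min after EC20 capsaicin (allosteric enhancer portion). Calcium-bound dye fluorescence at 480/520 nm.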
Menin MLL FP FL: displaces fluorescein MLL peptide from human menin; Fluorescence polarization, fluorescein-MLL peptide displacement from menin; FP activity change, % at 61.4 µM; 290,000 tested, under 10 active; inconclusive = falling polarisation curve, or a change in total fluorescence; inactive = total fluorescence flat and polarisation flat or rising; no compound was filed as active; the % refers to the polarisation; negative = inhibition;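 note: % of control where 0% means no effect; inhibitors lower the polarisation; unlabelled MLL peptide was the positive control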
gsp ag: gsp mutant agonism; gsp mutant cells, cAMP HTRF, 30 min; control for the full effect not named in the record; Potency, µM (highest dose often 76.9 µM), without a hit: top-dose activation (cAMP increase), hits mostly activators; hit rate 0.13% among 340,000; AID 624287; active = well fitted activation curve with a large enough effect; inconclusive = small, poorly fitted or top-dose-only effect, or another doubt; inactive = no such curve, though single readings can be large or run the other way; cell line not stated here;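 note: phosphodiesterase inhibitor Ro 20-1724 added with compounds to block cAMP breakdown; potency is the fitted concentration of half-maximal effect; nearly all actives have a fitted effect of over 60% in size; about a fifth of the inactives were tested at one dose only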
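Cells in DMEM/10% FBS with G418 were pretreated with compounds in DMSO plus […] (300 uM stock) for 30 min at 37C. cAMP was measured by HTRF (cAMP-d2 plus anti-cAMP antibody-K) after 30 min at room temperature.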
Sfp PPTase inh: inhibitors of Bacillus subtilis Sfp phosphopantetheinyl transferase | Biochemical Sfp PPTase activity, qHTS | Potency, µM, inactives show max response, negative = inhibition, most hits filed as inhibitors | AID 1490 | hit rate 3.5% among 310,000; active = well fitted inhibition curve with a large enough effect; inconclusive = small, poorly fitted or top-dose-only effect, or another doubt; inactive = no such curve, though single readings can be large or run the other way;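 note: the enzyme is Sfp with the accession as filed and its product quenches rhodamine fluorescence; potency is the fitted concentration of half-maximal effect; 0% = enzyme reaction without inhibitor and -100% = no enzyme wells; top concentration of the series not given in the record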
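Sfp 15 nM + cpd, 15 min RT; start w/ rhodamine-CoA 5 uM, BHQ-2-YbbR 12.5 uM (final); 50 mM Hepes pH 7.6, 10 mM MgCl2, 0.01% NP-40, 0.01% BSA; read 525/598 nm at 0 and 30 min.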
Active calls of the source: *; ? = inconclusive; · = no result given; & = joins results of further samples; [ ] = another dose, or the depositor's remark. Not a hit list. About 5.1% of those tested had a hit in this group.

entry	compound	ClpP mod	D2 potentiator	gsp antag	TRPV1 PAM	Menin MLL FP FL	gsp ag	Sfp PPTase inh
1	CCn1c(SCC(=O)N2CCN(c3ccc(Cl)cc3)CC2)nc2ccccc2c1=O	0.5%	-5&4	-13%	17	0.0	-38%[inhibitor]	-13%
2	Cc1cc(/C=C2\SC(=S)N(C)C2=O)c(C)n1-c1ccccc1O	-0.4%	-6	35µM*	·	·	26%	·
3	CCc1cc2cc(C)cc(C)c2nc1Cl	0.3%	1	8%	-1	-4.7	-11%[15.4 µM]	15%
4	CCOc1ccc(NC(=O)CC2C(=O)NCCN2C(=O)c2ccc(Cl)cc2)cc1 (stereo unspecified)	·	-5	14%	12	-5.5	-8%[15.4 µM]	9%
5	O=C(C1=C[C@@H](c2ccc(C(F)(F)F)cc2)C[C@@H](OCCCCO)O1)N1CCN(Cc2ccc3c(c2)OCO3)CC1	-0.1%	-9	-17%	17	-0.5	-4%	-2%
6	COc1ccc(/C=C/C(=O)NC(=S)NCc2ccccc2)cc1OC	·	-7	0%	-15	2.4	21%[15.4 µM]	3%
7	COc1ccc(C(C[N+](=O)[O-])c2c(C)[nH]n(-c3ccccc3)c2=O)cc1 (stereo unspecified)	·	-5	9%	-4	-15	-9%	40µM*
8	CC(NC(=S)Nc1cccc(F)c1)C(c1cccs1)N1CCOCC1 (stereo unspecified)	·	-3	-3%	-8	3.0	-9%[15.4 µM]	18%
9	Oc1cc2c(cc1CN1CCN(c3ncccn3)CC1)OCO2	1.8%	?	3%	-1	·	-23%	-6%
10	CC1CN(CC(=O)Nc2ccc([N+](=O)[O-])cc2Br)CC(C)O1 (stereo unspecified)	·	-4	-5%	2	-1.8	9%	4%
11	O=C(c1ccc(Cl)cc1)C1CCN(C(=O)c2ccccc2F)CC1	1.5%	-6	0%	·	·	-7%	·
12	CC(C)n1nc(C(=O)Nc2nc3ccccc3[nH]2)c2ccccc2c1=O	·	1	-3%	-4	0.8	-18%[15.4 µM]	19%
13	COC(=O)Nc1ccc(S(=O)(=O)N2CCC(C(=O)N3CCCCC3C)CC2)cc1 (stereo unspecified)	1.2%	-4	-4%	-1	-0.9	-6%[15.4 µM]	2%
14	Cc1ccccc1-c1noc(C2CCCCC2)n1	1.0%	-6	14%	-4	0.9	0%	-1%
15	S=c1[nH]nc(CSCCOc2ccccc2)o1	·	-9	-18%	2	-1.5	-11%[15.4 µM]	-24%
16	Cc1ccccc1CNC(=O)Cn1cnc(S(=O)(=O)N2CCCC2)c1	-0.2%	-10	5%	-21	·	?	13%
17	O=C(COc1ccc2c(c1)OCO2)Nc1ccc2c(c1)oc1ccccc12	-7.6%	9	2%	20	2.3	-25%	-21%
18	CCn1cc(CNCc2cn(C)nc2-c2ccc(C3CCCCC3)cc2)cn1	·	-5	-13%	4	0.2	14%[15.4 µM]	-4%
19	COc1cc(N2C(=O)CC3(CCCC3)CC2=O)cc(OC)c1OC	-7.6%	-4	0%	0	4.1	6%[15.4 µM]	21%
20	CCCC(=O)Nc1ccc(S(=O)(=O)N2CCC(c3nc4ccccc4[nH]3)CC2)cc1	2.7%	-1	5%	-24	·	30%	·
21	COc1ccccc1-c1noc(CCCC(=O)Nc2ccc(C(N)=O)cc2)n1	-4.4%	-5	6%	-4	-0.4	-19%	18%
22	CCOc1ccc(/C(O)=C2\C(=O)C(=O)N(CCOCCO)C2c2ccccc2OC)cc1 (stereo unspecified)	2.4%	-13	-1%	-5	1.1	?	5%
23	Cc1ccc(C23CC4CC(CC(NC(=O)NCCN(C)C)(C4)C2)C3)cc1	0.9%	-21	8%	5	0.5	-3%	-11%
24	CCN(CC)C(=O)C1=C(C)N(Cc2ccc(C(C)(C)C)cc2)C(=O)C(CC(=O)NCC2CCCCC2)C1 (stereo unspecified)	2.0%	2	·	·	·	-1%	·
25	COc1ccc(N=C2S/C(=C\c3ccc(N4CCOCC4)o3)C(=O)N2CCc2c[nH]c3ccccc23)cc1	·	·	·	19	?	·	4µM*

Later entries
entry	compound	ClpP mod	D2 potentiator	gsp antag	TRPV1 PAM	Menin MLL FP FL	gsp ag	Sfp PPTase inh
26	COc1ccc(/C(C)=N/NC(=O)c2nc(C)cc(C)n2)cc1	-0.7%	11	0%	4	-1.4	2%	5%
27	CS(=O)(=O)N(CC(=O)N1CCCC1)c1cccc(Cl)c1	-2.0%	-8	6%	1	-1.6	-2%	-6%
28	O=C(CN(c1ccc(Br)cc1)S(=O)(=O)c1ccc(Cl)c([N+](=O)[O-])c1)NCC1CCCO1 (stereo unspecified)	1.5%	9	?	·	·	1%	·
29	COc1ccccc1C(=O)Nc1ccnn1C1CCN(C)CC1	-0.5%	-12	11%	4	·	-7%	19%
30	CCn1nnc2cc(C(=O)Nc3cccc(S(=O)(=O)N(C)C)c3)ccc21	0.4%	-1	0%	-2	·	-23%	·
31	COc1cc(C)nc(NC(=S)N(C)C(=O)c2ccccc2)n1	·	0	-4%	0	-0.1	4%	13%
32	O=C(COc1ncnc2cc([N+](=O)[O-])ccc12)N(CCc1ccccc1)Cc1ccccc1	-2.2%	-11	28µM*	-5	5.8	?	-10%
33	CCOC(=O)c1cc2ccccc2n1CC(=O)c1ccccc1	·	-5	1%	5	0.9	28%	8%
34	CCCNC(=O)C1CC(=O)N(c2ccc(OCC)cc2)C1 (stereo unspecified)	·	-1	4%	8	0.8	3%	17%
35	COc1ccc(-c2csc3ncnc(N4CCN(c5ccccc5OC)CC4)c23)cc1	·	-1	-18%	-51	9.4	-18%	-3%
36	CCCCCN(C(=O)NC(=O)NCCCC)S(C)(=O)=O	-0.2%	1	-3%	7	-1.2	2%	2%
37	CCn1nc([N+](=O)[O-])c(C(C#N)c2nc3cc(C(F)(F)F)ccc3s2)c(Cl)c1=O (stereo unspecified)	0.7%	-20	28µM*	-5	2.5	-26%	-18%
38	CC(COS(N)(=O)=O)Cc1ccc(C(F)(F)F)cc1 (stereo unspecified)	1.7%	-14	0%	-14	4.6	16%	15%
39	CC(OC(=O)CNC(=O)c1ccc(Cl)c([N+](=O)[O-])c1)C(=O)NCc1ccco1 (stereo unspecified)	·	-2	-19%	6	·	12%[15.4 µM]	·
40	CC(=O)c1ccc(S(=O)(=O)NCC(=O)N2CCN(C/C=C/c3ccccc3)CC2)cc1	-3.4%	-15	-7%	28	·	18%	·
41	C/C(=C\c1ccco1)C1C(C#N)=C(N)Oc2n[nH]c(-c3ccccc3)c21 (stereo unspecified)	-1.7%	-15	-5%	-2	11	-78%[inhibitor]	79µM*
42	Cc1cc(OCC(=O)NCCc2c[nH]c3ccccc23)c2c(C)c(C)c(=O)oc2c1	-8.0%	-35	?	-3	-3.2	·	-4%
43	O=C1C=CN2CCOCC2C1 (stereo unspecified)	-7.5%	-7	9%	·	·	·	·
44	Cc1cc(=O)[nH]c(N/N=C/CCc2ccccc2)n1	·	-4	-13%	-13	-2.1	-10%	?
45	COc1cccc(C(=O)Nc2ccncc2)c1	·	·	·	-20	-4.5	·	5%
46	O=C(NCCN1CCN(c2ccccc2)CC1)Nc1ccc(Cl)cc1	-0.2%	-4	13%	-21	5.5	8%[15.4 µM]	10%
47	CS(=O)(=O)NCCCCNc1ccc(C(F)(F)F)cc1[N+](=O)[O-]	·	-8	-22%	-8	0.9	-3%[15.4 µM]	23%
48	O=C(NCCn1cccc1)c1cccc2ccccc12	-2.3%	-9	0%	10	6.2	15%	-14%

Filtered by structure, the compounds so far with a Cl atom.
entry	compound	ClpP mod	D2 potentiator	gsp antag	TRPV1 PAM	Menin MLL FP FL	gsp ag	Sfp PPTase inh
1	CCn1c(SCC(=O)N2CCN(c3ccc(Cl)cc3)CC2)nc2ccccc2c1=O	0.5%	-5&4	-13%	17	0.0	-38%[inhibitor]	-13%
3	CCc1cc2cc(C)cc(C)c2nc1Cl	0.3%	1	8%	-1	-4.7	-11%[15.4 µM]	15%
4	CCOc1ccc(NC(=O)CC2C(=O)NCCN2C(=O)c2ccc(Cl)cc2)cc1 (stereo unspecified)	·	-5	14%	12	-5.5	-8%[15.4 µM]	9%
11	O=C(c1ccc(Cl)cc1)C1CCN(C(=O)c2ccccc2F)CC1	1.5%	-6	0%	·	·	-7%	·
27	CS(=O)(=O)N(CC(=O)N1CCCC1)c1cccc(Cl)c1	-2.0%	-8	6%	1	-1.6	-2%	-6%
28	O=C(CN(c1ccc(Br)cc1)S(=O)(=O)c1ccc(Cl)c([N+](=O)[O-])c1)NCC1CCCO1 (stereo unspecified)	1.5%	9	?	·	·	1%	·
37	CCn1nc([N+](=O)[O-])c(C(C#N)c2nc3cc(C(F)(F)F)ccc3s2)c(Cl)c1=O (stereo unspecified)	0.7%	-20	28µM*	-5	2.5	-26%	-18%
39	CC(OC(=O)CNC(=O)c1ccc(Cl)c([N+](=O)[O-])c1)C(=O)NCc1ccco1 (stereo unspecified)	·	-2	-19%	6	·	12%[15.4 µM]	·
46	O=C(NCCN1CCN(c2ccccc2)CC1)Nc1ccc(Cl)cc1	-0.2%	-4	13%	-21	5.5	8%[15.4 µM]	10%
